# Compound activity: PubChem, Johns Hopkins Ion Channel Center
# KCNQ2 enhance = KCNQ2 (rat) channel potentiation | B-score at 10 µM | CHO-K1 KCNQ2, FluxOR thallium flux fluorescence; hits give high values | AID 2239 | 310,000 compounds, 0.54% hits | O88943;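 active = fluorescence ratio B-score at least 3 SD of library B-scores, with initial fluorescence B-score within 3 SD, cut at about 5.3 in these data; same plate scores as AID 2156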;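 note: B-score of peak minus minimum over baseline fluorescence ratio after K+ and Tl+ stimulus; positive B-score means potentiation of KCNQ2 with more thallium influx and brighter signal; only the inactives scoring about 0 or higher are listed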
# Target sequence (O88943 whole entry, looked up): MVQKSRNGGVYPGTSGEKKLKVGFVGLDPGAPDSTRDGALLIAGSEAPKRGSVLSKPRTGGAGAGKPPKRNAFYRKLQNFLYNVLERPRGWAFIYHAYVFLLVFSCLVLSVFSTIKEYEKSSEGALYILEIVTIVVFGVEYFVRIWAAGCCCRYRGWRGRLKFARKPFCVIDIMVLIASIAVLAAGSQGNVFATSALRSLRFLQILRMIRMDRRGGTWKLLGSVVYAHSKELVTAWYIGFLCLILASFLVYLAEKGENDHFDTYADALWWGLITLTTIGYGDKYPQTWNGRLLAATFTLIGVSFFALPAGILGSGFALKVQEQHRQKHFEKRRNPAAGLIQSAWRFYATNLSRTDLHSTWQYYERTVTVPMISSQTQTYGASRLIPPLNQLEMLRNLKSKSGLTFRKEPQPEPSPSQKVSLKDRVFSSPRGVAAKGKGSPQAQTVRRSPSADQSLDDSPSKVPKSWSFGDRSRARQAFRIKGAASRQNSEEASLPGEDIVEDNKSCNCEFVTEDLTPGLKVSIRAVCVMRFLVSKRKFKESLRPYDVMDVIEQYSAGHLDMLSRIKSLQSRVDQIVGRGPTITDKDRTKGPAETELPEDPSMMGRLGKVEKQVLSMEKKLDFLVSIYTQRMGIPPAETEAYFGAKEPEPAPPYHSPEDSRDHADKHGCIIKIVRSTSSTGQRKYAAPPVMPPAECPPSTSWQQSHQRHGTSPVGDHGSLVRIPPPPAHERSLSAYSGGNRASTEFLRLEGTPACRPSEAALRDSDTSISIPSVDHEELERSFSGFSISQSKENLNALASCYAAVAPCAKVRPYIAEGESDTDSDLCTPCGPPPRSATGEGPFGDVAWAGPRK
# KCNQ2 enhance baseline = second read-out of KCNQ2 enhance, no call of its own (marks repeat the call); B-score; compound at 10 µM; measured here: initial fluorescence intensity artifact check;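 brightness before thallium and not channel activity; 0 = typical well and far values either way flag optical interference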
# The depositor's hits bear a star; x = no result given.
SMILES,KCNQ2 enhance,KCNQ2 enhance baseline
O=C(CCC(=O)OCC(F)(F)C(F)F)Nc1ccc(F)cc1F,1.2,-2.4
Cc1cccc2c1-c1sc(C(=O)N3CCc4ccccc4C3)cc1CO2,-5.6,x
Cc1ccc2nc(SC(C)C(=O)N3CCCC3)[nH]c2c1 (centres undefined),1.6,-3.5
COc1ccc([C@@H]2C[C@@H](c3ccccc3)Oc3cc(C)cc(C)c32)cc1,0.01,1
CCOc1ccc(S(=O)(=O)NCc2cccnc2)cc1,0.42,-0.59
Cc1ccc(OCC(=O)Nc2ccc(N3CCOCC3)cc2)c([N+](=O)[O-])n1,0.51,0.36
Cc1c(NC(=O)C(C)Oc2ncnc3ccccc23)c(=O)n(-c2ccccc2)n1C (centres undefined),0.78,-0.04
Cc1cc2c(NC3CCCCC3)ncnc2s1,1,-2.7
CC1(C)C(CO)=CC(=O)C2=C1SCC(=O)N2,0.36,-0.06
COc1ccc(NS(=O)(=O)c2ccc(N3CCCC3=O)cc2)cn1,0.27,0.02
Cc1cc2ccccn2c1C(=O)c1cccc([N+](=O)[O-])c1,1.4,-0.69
CC[n+]1ccc(C)c2cc(SC(F)(F)F)ccc21,0.76,0.11
Cc1nc2ccccc2nc1CN1CCC(CO)(CC2CCCCO2)CC1 (centres undefined),0.41,0.98
Cn1c(-c2nonc2N)nc2ccccc21,0.19,-0.49
Cc1cc(Cl)ccc1N=C1N=C(N)c2ccccc21,0.09,0.34
Cc1nc(N2CCN(C(=O)c3ccco3)CC2)c2c3c(sc2n1)CCC3,1.2,-1.3
COc1ccc(NC(=O)N2CCCC2)cc1OC,1,1.3
COc1ccc(C(=O)CSc2nc3nc(C)cc(C)n3n2)cc1OC,0.93,-0.48
CCc1c(C)nc(SCC(=O)N2CCN(c3ccccc3)CC2)[nH]c1=O,2.2,-1.7
COc1cc(C(=O)Nc2cccc(NC(=O)c3ccccc3)c2)cc(OC)c1OC,0.1,-1.7
Cc1ccc2[nH]c(C(=O)O)c(NC(=O)c3ccccc3[N+](=O)[O-])c2c1,1.8,-1.5
CCOC(=O)C1CCN(CC(=O)Nc2ccc(OC)c(Cl)c2)CC1,0.08,-0.12
Cc1cc(C)c2c(N)c(C(=O)NN3CC(=O)N(c4ccccc4)CC3=O)sc2n1,1.6,-2.4
CCOc1cccc2cc(C(=O)N3CCc4ccccc43)c(=O)oc12,1.8,0.16
Nc1ccc2c(c1)Oc1ccccc1C=C2,1.4,0.89
# Other entries follow.
SMILES,KCNQ2 enhance,KCNQ2 enhance baseline
CC(=O)N[C@@H](Cc1c[nH]c2ccccc12)C(=O)OCC(=O)Nc1ccc(Cl)c(S(=O)(=O)N(C)C)c1,0.02,-0.83
Cc1ccc(C)c(NC(=S)Nc2ccc(S(=O)(=O)Nc3ncccn3)cc2)c1,0.85,-0.3
COc1ccc(-c2noc(C3CCCN(C(=O)c4ccccc4OC)C3)n2)cc1 (centres undefined),1.1,-1.5
O=C(COc1ccc([N+](=O)[O-])cc1)NCc1ccncc1,1.3,-0.69
Cc1ccc(C(=O)N2CCN(c3ncnc4c(-c5ccccc5)nsc34)CC2)cc1,1,0.1
Cc1cc(NC(=O)CSc2nnc(-c3ccc4c(c3)OCCO4)o2)no1,0.78,4.2
O=C(CNC(=O)c1ccccc1)OCC(=O)c1ccccc1Cl,0.83,-1.2
COc1ccc2c(c1OC)C(=O)OC2N1C(=O)CC[C@H]1C(=O)NCC1CCCO1 (some centres undefined),0.42,1.4
COCCCNc1nc2c(c(=O)[nH]c(=O)n2C)n1CC(O)COc1ccccc1 (centres undefined),1.3,1.4
Cc1nnc(SC(=O)N2c3ccccc3Sc3ccccc32)s1,0.49,-0.77
CSc1ccc(Cn2nnc(C(=O)NCCc3ccc(Cl)cc3)c2N)cc1,2,-0.59
Cc1ccc(C(=O)Nc2cccc(-c3nc4ncccc4o3)c2)cc1,0.75,0.07
COc1ccc(NC(=O)CSc2ccc(-c3ccco3)nn2)c(OC)c1,0.41,-1.5
c1ccc(CC2CCCNC2)cc1 (centres undefined),0.34,0.35
CCOC(=O)C1CCN(C(=S)Nc2ccc(C)cc2)CC1,0.91,0.97
CC(=O)NNC(=O)CCn1nnc(-c2ccc(Cl)cc2)n1,1.7,-0.28
CCOc1ccccc1NC(=O)COC(=O)CC(C)(C)CC1=NS(=O)(=O)c2ccccc2N1,1.2,0.22
CCc1c(C)sc(NC(=O)c2cc(-c3ccc(O)cc3)on2)c1C#N,0.7,0.34
COc1cc(/C=N/NC(=O)CCN2CCN(Cc3ccccc3)CC2)cc(OC)c1OC,0.83,-0.74
COc1ccc(NC(=O)Cn2nc(C(F)(F)F)c3c2CCCC3)cc1OC,0.3,1.2
O=C(NCCc1ccccc1)C1CCN(C(=O)NCc2ccccc2)CC1,1.6,-0.38
CC1CC(C)CN(CCCNC(=O)C2CCCN(c3ncnc4c3nc3n4CCCCC3)C2)C1 (centres undefined),0.69,-2
CC(=O)Cc1nsc(NC(=O)c2cc(-c3ccccc3Cl)oc2C)n1,0.06,-0.09
O=C(O)COc1c(-c2ccco2)oc2ccccc2c1=O,2,-0.22
COc1ccnc(Oc2ccc(C)cc2)c1C#N,0.45,-0.25
# The list continues:
SMILES,KCNQ2 enhance,KCNQ2 enhance baseline
COCCNC(=O)CN(C(=O)CCC(=O)Nc1cc(C)on1)c1ccc(C)cc1C,0.77,2
COc1cccc(S(=O)(=O)Nc2cccc(C(=O)N3CCCC3)c2)c1,1.4,-0.22
O=C(CN1CCCc2ccccc21)N/N=C/c1ccccc1,0.05,-1.1
O=C(CSc1ccccc1)Nc1ccncc1,0.91,0.13
CC(=O)OCCNC(=O)c1cc2ccccc2oc1=O,0.32,1.5
CCOC(=O)N1CCN(C(=O)c2ccc3c(=O)n(CCC4=CCCCC4)c(=S)[nH]c3c2)CC1,0.45,-0.08
Nc1cccc(-c2nc3ccc(C(=O)c4ccccc4)cc3[nH]2)c1,2.3,-1.2
CCN1CCCC1CNC(=O)Cn1nc(C)n2c(cc3cc(C)ccc32)c1=O (centres undefined),0.77,-0.85
CC1(C)NC(=O)N(CC(=O)OCC(=O)NC(=O)c2ccccc2)C1=O,1.1,-2.4
C=CCOC(=O)C1=C(C)NC(=O)NC1c1ccc2c(c1)OCO2 (centres undefined),0.04,-1.7
Cc1ccc(C(=O)OC2CCCN(C)C2)cc1 (centres undefined),0.03,-0.78
Cc1nc2c(s1)sc1ccccc12,0.41,-0.16
COc1ccc(C(=O)n2nc(C)cc2C)cc1OC,1.5,0.88
COc1ccc(Cn2c(C)c(C)c(C#N)c2NC(=O)Nc2cccc(Cl)c2)cc1,0.63,-0.34
CC(=O)c1ccc(N=Nc2ccc(N)cc2)cc1,0.96,0.14
CC(=O)c1cccc(NC(=O)C(C)N(C)CC(=O)Nc2ccc(Cl)cc2)c1 (centres undefined),0.28,1.6
CCOC(=O)C(C)NC(=O)Cn1ncc2c(=O)oc3ccc(C)cc3c21 (centres undefined),0.68,-1.4
Cc1cc(C)c(C)c(S(=O)(=O)N2CCC(C(=O)Nc3ccc(S(=O)(=O)N4CCOCC4)cc3)CC2)c1C,0.9,-1.9
CCOC(=O)C1CCN(C(=O)CN(c2ccc(OC)c(OC)c2)S(=O)(=O)c2ccccc2)CC1,1.2,-0.14
CCOC(=O)C1CCN(S(=O)(=O)c2ccc(OC)c(C(=O)N3CCCCC3)c2)CC1,3,0.48
Cc1cc(S(=O)(=O)NCC2CCCO2)c(C)cc1Br (centres undefined),1.6,0.18
O=C(CSc1nnnn1-c1ccccc1Cl)Nc1ccc2c(c1)OCCO2,0.21,0.14
CC(C)CNC(=S)NC1CC2CCCC(C1)N2Cc1ccco1 (centres undefined),0.94,-0.2
O=C(COc1ccc(S(=O)(=O)NC2CCCCC2)cc1)N1CCN(c2cccc(Cl)c2)CC1,0.29,-0.62
Cc1ccccc1/C=N/N=C1/NC(=O)CCS1,0.05,-0.76

# Full records from above.
# Nc1cccc(-c2nc3ccc(C(=O)c4ccccc4)cc3[nH]2)c1 in the list: KCNQ2 enhance = 2.3; KCNQ2 enhance baseline = -1.2
# COc1cccc(S(=O)(=O)Nc2cccc(C(=O)N3CCCC3)c2)c1 in the list: KCNQ2 enhance = 1.4; KCNQ2 enhance baseline = -0.22

# Further records follow.
SMILES,KCNQ2 enhance,KCNQ2 enhance baseline
CC(=O)Nc1ccc(C(=O)n2nc(C)cc2C)cc1,0.37,1.8
O=C(O)c1ccc(CSc2nc3ccccc3[nH]2)cc1,0.06,-0.93
Cc1cc(=O)oc2c(C)c3occc3cc12,0.3,-0.35
O=S1(=O)CCN2N=C(C3CC3)SC2=N1,0.91,0.77
O=C1C(C=NCc2cccnc2)=C(O)c2ccccc21,0.3,-1.1
COCCNC(=O)Nc1ccc2c(c1)N(C)C(=O)c1ccccc1S2,0.86,-1.5
C#Cc1ccc([C@@H]2C=C(C(=O)NCc3ccccc3)O[C@H](OCC)[C@H]2CCCO)cc1,0.27,-0.21
COc1ccc(C(=O)NN)cc1COc1ccc(Br)cc1,0.78,0.04
Cc1cc(C)c(S(=O)(=O)Nc2cccnc2)c(C)c1,0.44,1.3
O=C(NCCc1ccc([N+](=O)[O-])cc1)c1ccccc1,0.19,-0.29
O=C(c1ccccc1F)N(Cc1ccc(F)cc1)C1CCS(=O)(=O)C1 (centres undefined),0.03,-1.9
COc1ccccc1NS(=O)(=O)c1ccc2ccccc2c1,1.1,0.86
CCn1cc(C2=NOC(C(=O)Nc3cccc(C(C)=O)c3)C2)c(C)n1 (centres undefined),2,-1.7
O=C(c1ccc2c(c1)OCO2)N1CCOCC1,0.07,-0.84
COc1ccc(C2C(C#N)=C(/N=C/N3CCOCC3)OC3=C2C(=O)CC(C)(C)C3)cc1OC (centres undefined),0.73,0.02
CC(=O)N(CCCN1CCOCC1)Cc1ccncc1,0.08,-2.1
Cc1ccc(NC(=S)N(CCN2CCCCC2)Cc2ccco2)cc1,0.12,-1.6
CN(CCC1CCCCO1)Cc1cn(C)nc1-c1ccc2c(c1)OCCO2 (centres undefined),0.35,0.17
C/C(=N\NC(=O)CSc1nc(C)cc(C)n1)c1ccc([N+](=O)[O-])cc1,0.67,0.02
CCOCc1nnc(NC(=O)c2ccc3c(c2)OCO3)s1,0.09,0.03
O=C(CN1C(=O)c2cccc3cccc1c23)NCc1ccc2c(c1)OCO2,0.31,-0.14
CCc1ccc(/C=C2\SC(=S)N(CCC(=O)N3CCN(C)CC3)C2=O)cc1,0.91,-0.59
Cc1ccc(CNC(=O)CN2C(C)CCCC2C)cc1 (centres undefined),1.8,1.3
COc1cc(C(=O)NCc2nnc(SCC(=O)NC3CCCCC3)o2)cc(OC)c1OC,0.59,-1
COCCN(C(=S)Nc1cccc(C)c1)C(C)c1cccnc1 (centres undefined),0.69,-1.9
# Going on with the list:
SMILES,KCNQ2 enhance,KCNQ2 enhance baseline
CC(C)CCSc1nnc(N)s1,1.1,0.28
COc1ccccc1N1CCN(CC(=O)c2c(C)[nH]c3cc(C)ccc23)CC1,1.6,0.33
O/N=C/Cc1[nH]c2ccccc2c1-c1ccccc1,0.76,0.25
Cc1[nH]n(-c2ccccc2)c(=O)c1C(=O)c1cccc(F)c1,0.52,-0.41
O=c1c2c([nH]c3ccc(Br)cc13)CCCC2,0.43,-0.28
COc1ccccc1CNC(=O)CSc1n[nH]c(N)n1,0.05,1.1
CC1=NNC(=O)C1Cc1c(Cl)cccc1Cl (centres undefined),0.9,1
COCCN(C(=O)CSCC(=O)Nc1cccc(C)c1)c1c(N)n(Cc2ccccc2)c(=O)[nH]c1=O,0.89,-0.35
CCN(CC)CCCNC(=O)CN1C(=O)CSc2ccc(S(=O)(=O)N3CCOCC3)cc21,0.55,0.15
CCOC(=O)c1c(C)[nH]c(C(=O)OCC(=O)c2ccc3c(c2)NC(=O)CO3)c1C,1.6,1.3
COc1cccc(C(=O)NCCCNC(=O)c2cccnc2)c1,0.9,1
Cc1ccc(NC(=O)C2=C(O)CCn3c2nc2ccccc23)cc1,0.68,-0.46
COc1ccc(N)cc1C#N,0.08,-0.31
CCOC(=O)N1CCN(c2c(NCCN3CCCCC3CC)c(=O)c2=O)CC1 (centres undefined),2.5,0.01
Cc1nnc(SCc2cccc(CSc3nnc(C)s3)c2)s1,0.04,-0.54
CC(C)N1CCN(Cc2ccsc2)CC1CCO (centres undefined),0.62,0.13
Cc1cc(C)cc(OC(=O)c2cccnc2)c1,0.85,1.6
O=C(/C=C/c1cccs1)NC1CCCC1,1.3,-0.14
NC1=NC(=Nc2ccc(S(N)(=O)=O)cc2)c2ccccc21,0.91,-0.7
O=C(COc1ccccc1Cl)Nc1ccc(C(=O)N2CCCCC2)cc1,0.86,0.76

# Four of these compounds in another layout.
smiles	KCNQ2 enhance	KCNQ2 enhance baseline
Cc1nnc(SCc2cccc(CSc3nnc(C)s3)c2)s1	0.04	-0.54
CC(C)N1CCN(Cc2ccsc2)CC1CCO (centres undefined)	0.62	0.13
Cc1cc(C)cc(OC(=O)c2cccnc2)c1	0.85	1.6
O=C(/C=C/c1cccs1)NC1CCCC1	1.3	-0.14

# In the list so far, 5 contain fluorine:
SMILES,KCNQ2 enhance,KCNQ2 enhance baseline
O=C(CCC(=O)OCC(F)(F)C(F)F)Nc1ccc(F)cc1F,1.2,-2.4
CC[n+]1ccc(C)c2cc(SC(F)(F)F)ccc21,0.76,0.11
COc1ccc(NC(=O)Cn2nc(C(F)(F)F)c3c2CCCC3)cc1OC,0.3,1.2
O=C(c1ccccc1F)N(Cc1ccc(F)cc1)C1CCS(=O)(=O)C1 (centres undefined),0.03,-1.9
Cc1[nH]n(-c2ccccc2)c(=O)c1C(=O)c1cccc(F)c1,0.52,-0.41

# This is a subset. The share of hits here may be higher or lower than overall.
